High-throughput results deposited in PubChem BioAssay by National Center for Advancing Translational Sciences (NCATS).
Cruzain Triton: blocks cruzain activity in presence of Triton detergent. P25779. purified cruzain, Z-FR-AMC fluorescence, 0.01% Triton. Potency, µM, for inactives: max response, negative = inhibition, actives largely listed as inhibitors. actives 0.43% (n = 200,000). AID 1478; active = well fitted curve in the direction sought with a large enough effect; inconclusive = small, poorly fitted or top-dose-only effect, or another doubt; inactive = no such curve, though single readings can be large; an effect the other way counts as inactive or inconclusive;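 note: plate controls were neutral wells for no effect and buffer without enzyme for full effect; nearly all actives have a fitted effect of over 40% in size; top concentration of the series not given in the record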
Target sequence (P25779 123-467 limits assumed): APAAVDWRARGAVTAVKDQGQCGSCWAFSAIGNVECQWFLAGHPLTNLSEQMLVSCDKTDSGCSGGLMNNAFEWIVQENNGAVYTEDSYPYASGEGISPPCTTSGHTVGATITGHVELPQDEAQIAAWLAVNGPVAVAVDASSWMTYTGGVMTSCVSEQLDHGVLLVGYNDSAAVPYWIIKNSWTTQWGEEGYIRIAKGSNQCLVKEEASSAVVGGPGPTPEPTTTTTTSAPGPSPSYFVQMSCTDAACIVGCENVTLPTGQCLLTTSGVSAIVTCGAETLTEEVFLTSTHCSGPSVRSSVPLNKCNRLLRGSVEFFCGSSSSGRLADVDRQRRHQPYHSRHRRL
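In this qHTS format, compounds are incubated with 1.5 nM cruzain for 15 min at room temperature before 2 uM Z-FR-AMC is added. Release of AMC is followed at 360/450 nm, and progress is taken as the 60 s fluorescence difference.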
NS1 inh: inhibitors of influenza NS1 protein function. S. cerevisiae slowed by influenza A NS1, growth recovery by OD600. Potency, µM (doses to about 46.1 µM), for the others: at the top dose activity, positive = more growth. actives 0.4% (n = 270,000); note: actives are rising curves; nearly all actives have a fitted effect of over 50% in size
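S. cerevisiae expressing influenza A NS1, grown in glucose, washed, then diluted 1:100 into pH 6.0 -URA galactose medium with 23 nl compound. Growth recovery read as OD600; NS1-free strain serves as control.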
StopGo reporter: FMDV 2A StopGo reporter, luciferase signal; human cells with a luciferase reporter of 2A StopGo recoding; control for the full effect not named in the record; Potency, µM (series often up to 57.9 µM), without a hit: top-dose signal change, negative = less light; actives 1.2% (n = 410,000); active = well fitted falling curve with a large enough effect; inconclusive = small, poorly fitted or top-dose-only effect; inactive = no such curve, though single readings can be large or run the other way; tested in HEK293T cells; note: % is set by controls: 0 for no effect and ±100 for the full control effect; nearly all actives have a fitted effect of over 45% in size; luciferase light after 4 h
MARV entry inh: inhibitors of Marburg virus binding or cell entry; Marburg virus pseudotyped entry inhibition, cell reporter; control for the full effect not named in the record; about a third of the inactives were read at about 46 µM; Potency, µM (titrated, usually from 37.8 µM), for inactives: at the highest dose activity change, negative = inhibition, usual class: inhibitors; actives 1.8% (n = 300,000); active = well fitted inhibition curve with a large enough effect; inconclusive = small, poorly fitted or top-dose-only effect, or effect the other way; inactive = flat fitted curve, though single readings scatter; tested in HEK293 cells; about a fifth of its hits are not listed in these tables; note: % is set by controls: 0 for no effect and ±100 for the full control effect; luciferase read-out
LASV entry inh: Lassa virus entry inhibition; Lassa virus pseudotype entry inhibition, cell reporter; control for the full effect not named in the record; AID 540256; actives 1.2% (n = 300,000); Potency, µM (series often up to 37.9 µM), for the others: at the highest dose activity change, negative = inhibition, actives largely listed as inhibitors; active means well fitted inhibition curve with a large enough effect; inconclusive means small, poorly fitted or top-dose-only effect, or effect the other way; inactive means flat fitted curve, though single readings scatter; tested in HEK293 cells; note: % is set by controls: 0 for no effect and ±100 for the full control effect; nearly all actives have a fitted effect of over 50% in size; luciferase read-out
Cruzain inh noDet: blocks cruzain activity in detergent-free assay; P25779; purified cruzain, Z-FR-AMC fluorescence, no detergent; Potency, µM, for inactives: max response, negative = inhibition, usual class: inhibitors; actives 2.3% (n = 200,000); AID 1476; active = well fitted curve in the direction sought with a large enough effect; inconclusive = small, poorly fitted or top-dose-only effect, or another doubt; inactive = no such curve, though single readings can be large; an effect the other way counts as inactive or inconclusive;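 note: plate controls were enzyme without inhibitor for no effect and buffer without enzyme for full effect; nearly all actives have a fitted effect of over 40% in size; top concentration of the series not given in the record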
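Purified cruzain at 1.5 nM, pre-incubated 15 min with compound at room temperature in 100 mM sodium acetate pH 5.5, 5 mM DTT, 0.00005% Triton X-100. Reaction started with 2 uM Z-FR-AMC; AMC fluorescence increase over 60 s gives rate.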
SARS PLP yeast: SARS-CoV PLP inhibition in yeast; S. cerevisiae expressing SARS-CoV PLpro, growth rescue; control for the full effect not named in the record; Potency, µM (highest dose often 32.9 µM), for the others: top-dose activity, positive = growth rescue; actives 0.19% (n = 330,000); AID 485353; note: 0% is about no effect; nearly all actives have a fitted effect of over 55% in size; growth read by luminescence after 48 h
RE007 growth inh: less growth of the S. pombe RE007 Vpr strain. Potency, µM (top dose mostly 92.2 µM), inactives show top-dose activity change, negative = less growth. S. pombe RE007 Vpr strain, BacTiter-Glo ATP luminescence, 24 h; control for the full effect not named in the record. actives 0.21% (n = 360,000); active = well fitted falling curve with a large enough effect; inconclusive = small, poorly fitted or top-dose-only effect; inactive = no such curve, though single readings can be large or run the other way;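 note: % is set by controls: 0 for no effect and ±100 for the full control effect; nearly all actives have a fitted effect of over 50% in size; the assay follows cell death caused by Vpr and the record does not say whether a fall means rescue or toxicity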
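Fission yeast strain RE007, carrying one chromosomally integrated HIV-1 vpr copy, was seeded at OD 0.01 in PMG+AL medium with 23 nL pinned compound. After 24 h at 30 °C and 99% humidity, viability was read by BacTiter-Glo luminescence.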
The depositor's hits bear a star; ? = inconclusive; . = not tested or not shown; & = joins results of further samples; [ ] = dose if it differs, or a comment. Unless noted, calls come from the whole dose curve; as a rule, active means well fitted rising curve with a large enough effect; inconclusive means small, poorly fitted or top-dose-only effect; inactive means no such curve, though single readings can be large or run the other way. Potency is the fitted concentration of half-maximal effect. Outcome played no part in choosing rows; overall some 4.6% were active at least once.

Fields – Cruzain Triton	NS1 inh	StopGo reporter	MARV entry inh	LASV entry inh	Cruzain inh noDet	SARS PLP yeast	RE007 growth inh
- COc1cccc(C(=O)Nc2c(F)cccc2F)c1
    .	0%	17%	17%[46.1 µM]	.	.	-1%	73%
- Cc1onc(-c2ccccc2)c1C(=O)OCCOc1cccc(Cl)c1
    .	-9%	-23%	4%[46.1 µM]	?	.	2%	3%
- Cc1cc(C)n2nc(C(=O)N/N=C/c3ccc(O)cc3)nc2n1
    .	2%	-7%	3%[46.1 µM]	-1%[46.1 µM]	.	0%	-10%
- CC1=C(C(N)=O)C(c2cccnc2)n2nc(SCc3ccccc3Cl)nc2N1 (stereo not drawn)
    -1.9%	10%	7%	-2%	-10%	-22%	1%	0%
- COc1ccccc1N(C(=O)CNS(=O)(=O)c1ccccc1)C(C(=O)NCc1ccco1)C(C)C (stereo not drawn)
    0.2%	-7%	15%	?	-12%	1%	5%	7%
- COc1ccc(CNC(=O)CN(C(=O)CCC(=O)Nc2nccs2)c2cccc(C)c2)cc1
    .	4%	-2%	-11%	-12%	.	2%	4%
- CC(C)(C)OC(=O)N1CCC(c2c(C(=O)N3CCN(C4CCCCC4)CC3)cnn2-c2cccc(Cl)c2)CC1
    -1.2%	.	-25%	.	?	-7%	.	.
- O=C(Nc1ccccc1Cl)C1C2CCCCC21 (stereo not drawn)
    .	.	31%[activator]	26%[46.1 µM]	14%[46.1 µM]	.	.	-17%
- O=C(CCCCCN1C(=O)CCC1=O)Nc1ccc(Cl)c(C(F)(F)F)c1
    -4.1%	0%	?	1%	-32%[14.3 µM]	13%	1%	-3%
- COC(=O)c1ccc2nc(-c3cccc(N)c3)cn2c1
    .	-2%	-76%	?	?	.	-1%	-14%
- O=C(O)COCC(=O)N1CCCN(c2nccc(C(F)(F)F)n2)CC1
    .	4%	-16%	.	.	.	0%	-6%
- COC(=O)CN(C)C(=O)c1cccc(OC2CCN(S(=O)(=O)N(C)C)CC2)c1
    .	13%	19%	15%[46.1 µM]	-6%[46.1 µM]	.	3%	-10%
- CCOc1cccc(NC(=O)/C(C#N)=C/c2cccnc2)c1
    .	-6%	-29%	.	.	.	-1%	-8%
- O=C(Cc1cccc2ccccc12)N/N=C/c1ccc(Sc2nc3ccccc3s2)o1
    6.0%	10µM*	-19%	?	-24%	-1%	9%	1%
- O=C(COC(=O)C1CCN(S(=O)(=O)c2cccs2)CC1)Nc1ccc(F)cc1Cl
    .	.	29%	19%	-8%	.	-4%	17%
- CCOc1ccc(C(=O)NCCCCNC(=O)c2ccc(OCC)cc2)cc1
    .	3%	34%[activator]	28%	22%	.	2%	-12%
- COc1cccc(OCc2nc3ccccc3n2CCOc2ccccc2)c1
    -6.0%	.	-24%	13%[46.1 µM]	24%[46.1 µM]	-6%	.	.
- CC(NC(=O)c1ccccc1C(=O)O)c1ccc(-n2ccnc2)cc1 (stereo not drawn)
    .	4%	12%	.	.	.	-6%	-28%
- CCOC(=O)CSC1=NN2CCS(=O)(=O)N=C2S1
    .	.	-11%	?	20%	.	3%	4%
- O=C(NCCCn1ccnc1)Nc1ccc(Cl)cc1
    -19%	-24%	50%[activator]	?	23%	-8%	-14%	-11%

Nothing new here: an excerpt of the list.
Fields – Cruzain Triton	NS1 inh	StopGo reporter	MARV entry inh	LASV entry inh	Cruzain inh noDet	SARS PLP yeast	RE007 growth inh
- COc1cccc(OCc2nc3ccccc3n2CCOc2ccccc2)c1
    -6.0%	.	-24%	13%[46.1 µM]	24%[46.1 µM]	-6%	.	.
- CC(NC(=O)c1ccccc1C(=O)O)c1ccc(-n2ccnc2)cc1 (stereo not drawn)
    .	4%	12%	.	.	.	-6%	-28%
- CCOC(=O)CSC1=NN2CCS(=O)(=O)N=C2S1
    .	.	-11%	?	20%	.	3%	4%
- O=C(NCCCn1ccnc1)Nc1ccc(Cl)cc1
    -19%	-24%	50%[activator]	?	23%	-8%	-14%	-11%

Additional entries follow:
Fields – Cruzain Triton	NS1 inh	StopGo reporter	MARV entry inh	LASV entry inh	Cruzain inh noDet	SARS PLP yeast	RE007 growth inh
- CCOC(=O)N1CCN(C(=O)CN(c2cccc(C(F)(F)F)c2)S(C)(=O)=O)CC1
    -0.1%	2%	-7%	14%	-3%	11%	-3%	13%
- O=C(O)c1ccccc1OC(=O)C12CC3CC(CC(C3)C1)C2
    .	1%	-5%	-15%[46.1 µM]	?	.	0%	12%
- COCC(=O)NNS(=O)(=O)c1ccccc1[N+](=O)[O-]
    -2.9%	2%	-18%	11%	-7%	-8%	-29%	-1%
- COc1ccc(CCN2C(=O)CC(N3CCOCC3)C2=O)cc1 (stereo not drawn)
    -0.9%	2%	2%	1%	-24%	3%	-5%	-10%
- Cc1nnc(SCC(=O)Nc2cc(C(N)=O)cc(C(N)=O)c2)n1-c1ccccc1
    .	10%	-10%	6%[46.1 µM]	14%	.	5%	-5%
- Cc1nn(C)c(C)c1NC(=O)CN1CCC(O)(c2ccc3c(c2)OCO3)CC1
    5.2%	1%	.	8%	-3%	-2%	7%	-9%
- CCOC(=O)C1CCCN(CC(=O)Nc2ccc(C(=O)Nc3ccccc3OC)cc2)C1 (stereo not drawn)
    .	.	-25%	?	0%	.	-1%	-17%
- Cc1c(Nc2nc3ccccc3n3cnnc23)cccc1[N+](=O)[O-]
    .	-3%	-27%	.	.	.	2%	13%
- Cc1cccnc1NC(=O)CCNS(=O)(=O)c1ccc2c(c1)c(=O)n(C)c(=O)n2C
    .	.	-5%	11%[46.1 µM]	15%[46.1 µM]	.	2%	-4%
- CCCCn1c(N)c(N(CCOC)C(=O)CSCc2c(C)noc2C)c(=O)[nH]c1=O
    .	2%	-11%	2%	4%	.	8%	-22%
- CC(NC(=O)Nc1ccccc1)C(c1cccs1)N1CCN(c2ccccc2)CC1 (stereo not drawn)
    .	-7%	0%	.	.	.	2%	-11%
- CCC(=O)c1cc(-c2nc3ccccc3n2C)n(C)c1
    -5.8%	-7%	-2%	16%	0%	-1%	-5%	13%
- O=C(CCSCc1cccc(Cl)c1)NCc1ccccc1Cl
    0.5%	.	-2%	.	?	14%	.	.
- COc1cccc(NC(=O)CN(C)S(=O)(=O)c2ccc3c(c2)CCC(=O)N3)c1
    .	-4%	0%	.	.	.	1%	2%
- Cc1ccccc1Nc1ncnc2c1cnn2-c1ccccc1
    -0.2%	-139%	-3%	.	.	-6%	-16%	-12%
- COc1ccc2c(c1)C1CC(C)(NC(=O)C1S(=O)(=O)c1ccc(F)cc1)O2 (stereo not drawn)
    -3.3%	-11%	4%	13%	15%	6%	26%	20%
- Cc1cc(=O)oc2cc(OCC(=O)Nc3nnc(C4CC4)s3)ccc12
    .	-2%	-14%	1%[46.1 µM]	0%	.	0%	-8%
- COc1cccc(C(=O)Nc2ncc3c(n2)CC(c2ccc(OC)cc2OC)CC3=O)c1 (stereo not drawn)
    1.0%	10µM*	-21%	?	-3%	-9%	6%	10%
- CCSc1ccccc1C(=O)Nc1ccc2c(c1)OCO2
    .	-5%	40%[activator]	.	.	.	-2%	28µM*
- CCOC(=O)c1cnc2ccccc2c1Nc1cc(C(=O)O)ccc1C
    .	.	-2%	-1%[46.1 µM]	0%	.	-1%	28%
- Cc1ccc(-c2nn(CC(=O)NC3CCCCC3)c3c2cnc2ccccc23)cc1
    -1.0%	.	19%	.	-13%[46.1 µM]	-2%	.	.
- Cc1cc(CNC(=S)Nc2ccc(Br)cc2Cl)nn1C
    .	3%	52%[activator]	.	.	.	0%	7%
- COCCN1C(=O)C(CC(=O)Nc2ccc(C(C)=O)cc2)SC1=Nc1ccccc1 (stereo not drawn)
    -5.8%	-32%	?	?	-15%[46.1 µM]	?	0%	-8%&0%
- CC(C(=O)O)N1c2cccc3cccc(c23)S1(=O)=O (stereo not drawn)
    .	16%	6%	0%[46.1 µM]	15%[46.1 µM]	.	-2%	5%
- COc1ccc(/C=N/NC(=O)c2sc3nc(C)cc(C)c3c2N)cc1
    .	7%	-13%	-2%[46.1 µM]	0%[46.1 µM]	.	1%	5%
- OC(CNC1CCCC1)COc1ccc(Cl)cc1 (stereo not drawn)
    .	-6%	-4%	?	-11%[46.1 µM]	.	-3%	9%
- Cc1cc(C)n(-c2nc3c(c(=O)[nH]c(=O)n3C)n2Cc2cccc(Br)c2)n1
    -7.1%	0%	-13%	5%	8%	-10%	8%	13%
- COCCCNC(=O)c1ccccc1-c1cc(C)no1
    .	-4%	-19%	-4%	22%	.	0%	2%
- O=C(NCCOc1ccccc1F)C1CCC(=O)N(CCc2cccc(F)c2)C1 (stereo not drawn)
    .	-25%	-7%	18%[46.1 µM]	-9%[46.1 µM]	.	3%	13%
- CCOc1ccccc1NC(=O)CCc1nnc2ccc(NCc3ccco3)nn12
    .	17%	-10%	.	.	.	7%	-2%
- CS(=O)(=O)N(CC(=O)Nc1ccccc1Sc1ccccc1)C1CCCCC1
    -5.3%	?	?	?	5%	?	15%	-4%
- O=C(CN1C(=O)C2CC=C(Cl)CC2C1=O)NCc1ccccc1 (stereo not drawn)
    0.0%	0%	4%	-7%[46.1 µM]	0%	-3%	3%	-7%
- CCCNC(=O)Nc1nc2ccccc2s1
    .	-65%	-5%	.	.	.	-1%	-3%
- Cc1cc(Nc2ccccc2)n(C(=O)c2ccc(N)cc2)n1
    -17%	-68%	-23%	?	-19%	?	-30%	17%
